Tau ThT inhib: tau fibrillization inhibition (ThT binding); P10636; recombinant tau K18 P301L, heparin-induced fibrillization, ThT fluorescence; Potency, µM (highest dose often 57.4 µM), for inactives: at the top dose activity, negative = inhibition, actives largely listed as inhibitors; 270,000 tested, 2.1% active; also: nearly all actives have a fitted effect of over 55% in size
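In this qHTS, human K18 P301L tau is incubated with compound and heparin for 6 hr at 37 C, and Thioflavin T fluorescence then reports fibril load.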
ALDH1A1 inh: blocks purified human ALDH1A1 activity; Purified ALDH1A1, NADH fluorescence, propionaldehyde substrate; Potency, µM (top dose mostly 75.3 µM), for inactives: top-dose activity, negative = inhibition, hits mostly inhibitors; 220,000 tested, 7.3% active; AID 1030; active = well fitted inhibition curve with a large enough effect, not every such curve was filed as active; inconclusive = small, poorly fitted or top-dose-only effect, or another doubt; inactive = no such curve, though single readings can be large or run the other way;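 also: plate controls were no enzyme wells and a reference inhibitor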
Target sequence (P00352 whole entry, looked up): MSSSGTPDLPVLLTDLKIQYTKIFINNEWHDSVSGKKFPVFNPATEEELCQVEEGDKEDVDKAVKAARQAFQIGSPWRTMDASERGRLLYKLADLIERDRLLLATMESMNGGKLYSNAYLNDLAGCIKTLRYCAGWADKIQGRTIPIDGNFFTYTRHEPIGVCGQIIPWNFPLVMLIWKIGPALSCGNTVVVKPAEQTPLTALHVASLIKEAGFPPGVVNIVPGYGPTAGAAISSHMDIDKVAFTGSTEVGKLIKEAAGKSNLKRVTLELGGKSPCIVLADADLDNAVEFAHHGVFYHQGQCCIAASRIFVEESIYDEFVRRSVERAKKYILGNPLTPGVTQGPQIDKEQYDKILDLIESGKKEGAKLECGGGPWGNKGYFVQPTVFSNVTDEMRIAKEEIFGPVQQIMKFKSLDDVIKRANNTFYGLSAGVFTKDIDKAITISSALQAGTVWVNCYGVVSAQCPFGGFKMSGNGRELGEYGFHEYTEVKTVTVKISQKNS
Tau fibril FP: tau fibrillization inhibition (FP). P10636. K18 P301L tau heparin fibrillization, Alexa594 FP, 6 h. Potency, µM (doses to about 57.7 µM), without a hit: top-dose activity, negative = inhibition, hits mostly inhibitors. 280,000 tested, 0.39% active. AID 1468; also: nearly all actives have a fitted effect of over 55% in size
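Read-out: fluorescence polarization of Alexa 594-labeled tau (0.24 uM), 555 nm excitation, 632 nm emission. Mixtures held 15 uM unlabeled K18 P301L, compound and 20 uM heparin, pH 7 acetate buffer, incubated 6 hr at 37 C.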
Tau fluor counter: counter-screen for tau fibril formation inhibitors; tau K18 P301L Alexa594 fluorescence, heparin fibrillization; 280,000 tested, 0.93% active; Potency, µM (doses to about 57.7 µM), inactives show at the top dose activity change, negative = decrease; also: nearly all actives have a fitted effect of over 55% in size
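Human tau K18 P301L (15 uM unlabeled, 0.24 uM Alexa 594-labeled) in 100 mM sodium acetate pH 7 with 20 uM heparin, 6 hr at 37 C. ThT 30 uM added, 1 hr ambient; Alexa 594 FP and total fluorescence read at 555/632 nm.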
Starred values were filed as active, the others as inactive; ? = inconclusive; & = joins results of further samples. Unless noted, calls follow the shape of the dose curve; as a rule, active = well fitted curve in the direction sought with a large enough effect; inconclusive = small, poorly fitted or top-dose-only effect, or another doubt; inactive = no such curve, though single readings can be large; an effect the other way counts as inactive or inconclusive. Unless noted, % is scaled to controls: 0 for no effect and ±100 for the full control effect; potency is read from the fitted curve at half-maximal effect. Some of the compounds tested; rates above refer to the full screens.

[1] O=C(Cc1ccccc1)N1CCN(C2CCCCCC2)CC1
[2] O=C(COc1ccc2ccccc2c1)N1CCN(Cc2ccncc2)CC1
[3] CC(=O)N1CCN(c2ccc(OC[C@H]3CO[C@](Cn4ccnc4)(c4ccc(Cl)cc4Cl)O3)cc2)CC1
[4] CCOC(=O)c1cncn1C(C)c1ccccc1 (configuration not stated)
[5] CC(=O)CC(c1ccccc1)c1c(O)c2ccccc2oc1=O (configuration not stated)
[6] C[C@@H]1C[C@@H]([C@H](O)CC2CC(=O)NC(=O)C2)C(=O)[C@@H](C)C1
[7] COc1cc(CN2CCSCC2)cc(OC)c1OC
[8] CC12NC(Cc3ccccc31)c1ccccc12 (configuration not stated)
[9] CCCCCn1c(=O)c(C(=O)NCc2ccco2)c(O)c2ccccc21
[10] CC12CCC(=O)C=C1CCC1C2CCC2(C)C(O)CCC12 (configuration not stated)
[11] C[C@]12N[C@H](Cc3ccccc31)c1ccccc12

entry no.	1	2	3	4	5	6	7	8	9	10	11
Tau ThT inhib	-7%	0%	?	-7%	-1%	1%	-3%	-10%	-10%	-2%	1%
ALDH1A1 inh	?	?	?	4%	?	3%&3%	?	7%	-4%	-2%	-7%
Tau fibril FP	1%	?	1%&-8%&-3%&-4%&-3%	-1%	-8%	-6%	2%	7%	-10%	0%	2%
Tau fluor counter	1%	-10%	-20%&-11%&-7%&-5%&-15%	-12%	-5%	-2%	4%	-5%	-20%	-1%	-5%

By substructure, those above containing nitrogen in an aromatic ring
[2] O=C(COc1ccc2ccccc2c1)N1CCN(Cc2ccncc2)CC1
[3] CC(=O)N1CCN(c2ccc(OC[C@H]3CO[C@](Cn4ccnc4)(c4ccc(Cl)cc4Cl)O3)cc2)CC1
[4] CCOC(=O)c1cncn1C(C)c1ccccc1 (configuration not stated)
[9] CCCCCn1c(=O)c(C(=O)NCc2ccco2)c(O)c2ccccc21

entry no.	2	3	4	9
Tau ThT inhib	0%	?	-7%	-10%
ALDH1A1 inh	?	?	4%	-4%
Tau fibril FP	?	1%&-8%&-3%&-4%&-3%	-1%	-10%
Tau fluor counter	-10%	-20%&-11%&-7%&-5%&-15%	-12%	-20%

One compound at a time, from the list above. Order of screens: Tau ThT inhib | ALDH1A1 inh | Tau fibril FP | Tau fluor counter
CC(=O)N1CCN(c2ccc(OC[C@H]3CO[C@](Cn4ccnc4)(c4ccc(Cl)cc4Cl)O3)cc2)CC1 in the list: ? | ? | 1%&-8%&-3%&-4%&-3% | -20%&-11%&-7%&-5%&-15%
C[C@]12N[C@H](Cc3ccccc31)c1ccccc12 in the list: 1% | -7% | 2% | -5%
CC12CCC(=O)C=C1CCC1C2CCC2(C)C(O)CCC12 (configuration not stated) in the list: -2% | -2% | 0% | -1%
